Six1-Eya2 inh = blocks human Six1 binding to Eya2; activity change, % (test concentration not listed); Q15475+O00167; AlphaScreen GST-Six1/His-Eya2 binding, biochemical; hits give low values; control for the full effect not named in the record; hit rate 0.56% among 360,000; in the data active = activity change below about -65%; inconclusive = about -30% to -65%; inactive = above about -30%; further: on the % scale 0 is the no-effect control and ±100 the full control effect; compound concentration not given in the record
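AlphaScreen luminescence read after one hour at 37 °C in darkness. Pin-transferred compounds met GST-Six1 and His-Eya2 protein (5X stock 250 nM/500 nM) plus glutathione donor and Ni-chelate acceptor beads (5X, 50 ug/mL).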
D2 potentiator = human D2 receptor positive allosteric modulation; P14416; AID 624464; hit rate 0.23% among 360,000; potentiation, % (no concentration beside the values); DiscoveRx D2 beta-arrestin cells, luminescence, 90 min; 100% = 57 uM dopamine signal; active = potentiation of 50% or more; inconclusive = 30% to 50%; inactive = 30% or less;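 further: compound concentration not given in the record; tested on top of an EC20 dose of dopamine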
Target sequence (P14416 whole entry, looked up): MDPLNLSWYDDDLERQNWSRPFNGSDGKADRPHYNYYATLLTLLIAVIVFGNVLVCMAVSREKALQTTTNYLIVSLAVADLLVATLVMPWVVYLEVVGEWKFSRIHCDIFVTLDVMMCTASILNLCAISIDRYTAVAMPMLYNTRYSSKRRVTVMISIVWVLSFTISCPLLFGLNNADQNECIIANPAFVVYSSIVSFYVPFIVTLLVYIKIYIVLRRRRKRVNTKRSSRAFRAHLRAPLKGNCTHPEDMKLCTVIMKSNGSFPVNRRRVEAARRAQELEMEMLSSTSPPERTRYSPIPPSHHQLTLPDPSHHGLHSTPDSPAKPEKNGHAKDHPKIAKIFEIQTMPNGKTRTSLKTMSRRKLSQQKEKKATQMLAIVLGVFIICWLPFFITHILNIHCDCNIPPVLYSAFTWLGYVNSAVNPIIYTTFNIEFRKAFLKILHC
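PathHunter D2 cells, attached overnight at 37 deg C, received compound in DMSO plus dopamine at EC20 (50 nM final) for 90 min at 37 deg C. Beta-arrestin recruitment was read as luminescence after 1 h with detection reagent at ambient temperature.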
TRPML1 ag = agonists of human TRPML1 channel. Q9GZU1. TRPML1-expressing cells, Ca2+ dye fluorescence, FDSS; host cell line not named in the record; reference of the full effect not given here. activation, % (test concentration not listed). hit rate 0.12% among 410,000; in the data active = activation above about 50%; inconclusive = about 30% to 50%; inactive = below about 30%; further: 0% is about no effect; the text of the record puts the active cut at 80%
Target sequence (Q9GZU1 whole entry, looked up): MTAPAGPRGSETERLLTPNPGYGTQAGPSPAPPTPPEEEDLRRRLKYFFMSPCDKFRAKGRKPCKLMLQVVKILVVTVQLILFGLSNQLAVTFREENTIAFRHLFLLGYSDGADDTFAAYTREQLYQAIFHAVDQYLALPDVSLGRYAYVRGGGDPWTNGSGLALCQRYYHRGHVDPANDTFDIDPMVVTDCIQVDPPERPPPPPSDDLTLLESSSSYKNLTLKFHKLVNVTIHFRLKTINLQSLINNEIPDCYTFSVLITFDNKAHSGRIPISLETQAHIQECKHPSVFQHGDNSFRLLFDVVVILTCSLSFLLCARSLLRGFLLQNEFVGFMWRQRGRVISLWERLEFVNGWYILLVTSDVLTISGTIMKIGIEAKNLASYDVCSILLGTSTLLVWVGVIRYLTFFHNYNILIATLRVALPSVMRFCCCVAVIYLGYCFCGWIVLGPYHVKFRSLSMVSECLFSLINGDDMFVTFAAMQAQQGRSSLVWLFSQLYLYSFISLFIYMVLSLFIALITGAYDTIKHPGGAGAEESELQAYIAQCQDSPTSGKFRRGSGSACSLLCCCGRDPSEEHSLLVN
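Tet-induced TRPML1-DL cells, 1,500 per well, cultured overnight, were loaded with a no-wash Ca2+ dye for 45–90 min. Calcium fluorescence was recorded on the FDSS for 110 s after compound addition, before the EC80 agonist (4 uM 54-4) was added.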
PINK1 modulator = changes PINK1 expression; PINK1 immunofluorescence, high-content cytometry, 24 h; hit rate 0.2% among 410,000; Potency, µM (top dose mostly 76.6 µM), without a hit: top-dose activation (PINK1 increase), hits mostly activators; active = well fitted activation curve with a large enough effect; inconclusive = small, poorly fitted or top-dose-only effect; inactive = flat fitted curve, though single readings scatter; cell line not stated here;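 further: potency means the concentration at half of the fitted maximal effect; % of control where 0% means no effect; nearly all actives have a fitted effect of over 65% in size; a mitochondrial uncoupler was the plate control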
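Measures PINK1 amount and localization on or inside mitochondria by immunofluorescence. Stable cells get compounds at 5 concentrations for 24 hours before fixation and staining; CCCP controls included.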
D2 agonist = activates the human D2 dopamine receptor; DiscoveRx PathHunter D2 beta-arrestin, luminescence, 90 min; 100% = 57 uM dopamine signal; activation, % (test concentration not listed); hit rate 0.084% among 360,000; AID 624465; in the data active = activation above about 40%; inconclusive = about 15% to 40%; inactive = below about 15%; further: compound concentration not given in the record; the text of the record calls up to 30% inactive
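DiscoveRx PathHunter D2 beta-arrestin cells (2,100/well) attached overnight, then compound-stimulated 90 min at 37 C in HBSS/10 mM HEPES/0.1% Tween-20 buffer; beta-galactosidase complementation read by luminescence after 1 h at ambient temperature. Dopamine 57 uM final (EC100) as control.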
TRPML1 blocker = blocks the human TRPML1 channel. activity change, negative = inhibition, % (no concentration beside the values). TRPML1-inducible cells, Ca2+ dye fluorescence, FDSS; hits give low values; inhibition of EC80 agonist-evoked calcium signal. hit rate 0.02% among 390,000; in the data active means activity change below about -50%; inconclusive means about -30% to -50%; inactive means above about -30%;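 further: stimulus is agonist 54-4 at its EC80 concentration; on the % scale 0 is the no-effect control and ±100 the full control effect; compound concentration not given in the record; the text of the record puts the active cut at -80%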
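Calcium fluorescence in TRPML1-DL cells induced overnight with Tet: a 110 s read after compound pin addition, then a 110 s antagonist read after challenge with 54-4 at 4 uM final (EC80).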
Active calls of the source: *; ? = inconclusive; . = no result given; [ ] = dose if it differs, or a comment.

SMILES | Six1-Eya2 inh | D2 potentiator | TRPML1 ag | PINK1 modulator | D2 agonist | TRPML1 blocker
Cc1cc(=O)[nH]c(SCC(=O)NCc2ccc3c(c2)OCO3)n1 | -10.5 | -2.0 | 0.3 | 1.5% | 1.4 | -12.8
O=C(Nc1nnc(C2=COCCO2)o1)c1cccc([N+](=O)[O-])c1 | 2.1 | -12.1 | 0.1 | -1.4% | -5.8 | 22.8
Cc1cc(=O)[nH]c(SCC(=O)NCCOc2ccccc2)n1 | 6.3 | -12.5 | -0.1 | . | -1.9 | 11.0
CCCCCCCCOC(=O)CCn1[nH]c(=O)c2ccccc2c1=O | 3.9 | 0.8 | 0.4 | 0.3% | -1.5 | 0.9
O=C(NCc1ccccc1)N1CCN(c2ccc(Cl)c(Cl)c2)CC1 | -5.1 | 16.5 | 0.0 | 9.1% | 4.3 | -0.5
CCN(CC)C(=O)Cn1cc(C(=O)C(=O)NCCc2c[nH]c3ccccc23)c2ccccc21 | -3.5 | -7.8 | 0.7 | -1.8% | -3.2 | 16.9
Cc1ccc(NC(=O)c2ccc(Br)cc2)c(C(=O)c2ccccc2)c1 | . | . | 3.0 | 3.2% | . | 9.9
Cc1ccc(N(CC(=O)Nc2ccc3c(c2)OCCO3)S(=O)(=O)c2c(C)noc2C)cc1 | -6.1 | -0.9 | -1.0 | -1.9% | -1.2 | -9.9
COc1cc(CC(=O)OCC(=O)N2CCCCC2C)cc(OC)c1OC (configuration not stated) | 0.8 | -6.6 | 0.0 | 3.8% | -0.2 | -12.4
Cc1nn(C)c(C)c1S(=O)(=O)N1CCC(CO)(CC2CCCCO2)CC1 (configuration not stated) | 0.4 | -2.1 | -0.1 | -0.1% | 1.7 | -8.8
COc1ccc(CC(=S)N2CCOCC2)cc1OC | 6.3 | 3.8 | 0.5 | -2.9% | -2.1 | 1.8
Cc1cc(C)c2oc(-c3ccc(Cl)c(NC(=O)c4cccs4)c3)nc2c1 | . | . | 3.1 | 4.3% | . | 6.3
CCOC(=O)c1c(Cc2cccc(Cl)c2)c[nH]c1C | -1.7 | 0.5 | 1.2 | 10.2% | 5.3 | 11.3
CCN(CC)c1nc2n(c(=O)n1)CCO2 | 0.6 | -8.7 | -0.1 | 1.3% | -2.5 | 10.3
CCOCc1c(C(=O)OCC(=O)Nc2ccc(C)c(S(=O)(=O)N(C)C)c2)oc2ccccc12 | -8.6 | -20.2 | 1.3 | 1.6% | 2.5 | 60.9
COCCCn1c(Cc2csc(Nc3cccc(Cl)c3)n2)nnc1SCC(=O)OC | -15.2 | -0.1 | 2.0 | 4.8%[38.3 µM] | 0.0 | -0.1
Cc1cccc(-c2nc(NCCCN(C)C)c3ccccc3n2)c1 | -6.1 | -18.8 | -0.4 | -0.8% | 0.8 | 22.7
C=C1CCN([C@@H](Cc2ccccc2)C(=O)O)S(=O)(=O)c2ccccc21 | 1.4 | -1.0 | -0.5 | 0.7% | -0.3 | -0.4
CCN(CC)C(=O)C1CCN(S(=O)(=O)c2ccc3c(c2)CCCN3C(=O)C2CCC2)CC1 | 2.3 | -13.6 | -0.3 | -0.1% | 2.0 | 17.7
C=CCNC(=O)c1oc2ccc(S(=O)(=O)N(CC)CC)cc2c1C | 16.0 | 0.3 | 1.0 | 13.7%[38.3 µM] | -0.8 | 105.6
CCn1cc(-c2n[nH]c(=S)n2-c2ccc(C)cc2Br)c(=O)c2ccc(C)nc21 | -0.3 | -15.5 | 1.5 | 0.5% | -7.6 | 6.9
O=C(O)c1ccccc1NS(=O)(=O)c1cccc(-n2sc3ccccc3c2=O)c1 | -6.1 | 0.8 | 0.1 | 1.5% | ? | -5.7
Nc1c(C(=O)Nc2ccccc2Cl)c2ccccn2c1C(=O)c1ccc(Cl)cc1 | . | . | 0.6 | 2.0% | . | 2.3
Nc1nc2nc(-c3ccc(OCc4ccccc4)cc3)cc(C(F)(F)F)n2n1 | 6.4 | -10.7 | 1.5 | -1.2% | 0.4 | 13.3
Nc1c(C(=O)c2ccccc2)oc2ccccc12 | 4.3 | -15.2 | 0.2 | 4.6% | -4.9 | -5.6
CSc1cccc(NC(=S)N2CCC(N(C)C3CCCCC3)CC2)c1 | 2.6 | -10.1 | 0.3 | -1.9% | -3.0 | 4.6
COc1ccc(CN2CCNC(=O)C2CC(=O)N(C)C2CCCCC2)cc1OC (configuration not stated) | 2.8 | -5.5 | 0.3 | -0.1% | 1.0 | -6.8
N#Cc1ccc(CN2CCN(C(=O)Cn3nc(C(N)=O)c4ccccc4c3=O)CC2)cc1 | 18.4 | 0.1 | 0.1 | 0.5% | 1.8 | 44.1
CCOC(=O)C1=C(CC)OC(N)=C(C#N)C1c1ccc(NC(C)=O)cc1 (configuration not stated) | 8.6 | -7.5 | 0.1 | -0.1% | 1.6 | 23.7
O=C(CSc1nnc(Cc2cccs2)n1C1CCCCC1)N1CCN(C(=O)c2ccco2)CC1 | -0.1 | -14.7 | 1.8 | -0.8% | -0.5 | -6.0
COc1ccc(N(CC(=O)N2CCc3ccccc3C2)S(C)(=O)=O)cc1Cl | 0.1 | -1.0 | -0.1 | -1.7% | 2.6 | 1.7
CCOC(=O)[C@H]1[C@H]2COc3ccc(C)cc3[C@@H]2N2C(=O)c3cc(F)c(F)cc3NC(=O)[C@@]12C | 6.0 | -6.4 | 2.1 | 0.1% | -0.7 | 22.9
CC(C)c1ccc(NC(=O)c2cnn3c(C(F)F)cc(-c4ccccc4)nc23)cc1 | . | . | -0.3 | 1.4% | . | 7.3
COc1ccc(CNC(=O)c2cc(=O)c3ccccc3o2)cc1 | 5.3 | -19.6 | 1.1 | 2.7% | 0.0 | -12.0
NC(=O)N/N=C/C=C/c1ccc(F)cc1 | 4.8 | -0.4 | -0.6 | 0.5% | -3.0 | -8.8
FC(F)(F)c1ccc(NC(=S)NC2CCCCC2)cc1 | 0.5 | -6.4 | 0.0 | ? | 3.4 | -12.7
COc1ccc(-c2noc(N3CCN(c4cccc(Cl)c4)CC3)n2)cc1OC | . | . | -0.1 | 2.4% | . | 0.3
COc1ccc2c(c1)sc(=N)n2C | -3.8 | -2.4 | -0.1 | ? | 5.5 | -0.8
CCOc1cc2c(cc1OCC)C(C(=O)O)C(c1ccc(OC)c(O)c1)N(C)C2=O (configuration not stated) | 9.0 | -2.8 | 0.6 | -2.4% | -0.1 | 21.5
Cc1noc(C)c1C(=O)N1CCC1(C)C(=O)NS(=O)(=O)c1ccc(F)cc1F (configuration not stated) | 3.5 | -4.7 | 0.1 | -1.0% | -1.2 | 17.1
Cc1nn2c(C)c(C(=O)NCCc3ccccc3)cnc2c1-c1ccccc1 | . | . | 1.5 | 2.0% | . | -24.2
COc1ccc(C(=O)c2ccc(N3CCN(C(=O)c4ccc(F)cc4)CC3)c(F)c2)cc1Br | -0.6 | -31.2 | -0.9 | -0.3% | -2.3 | -5.8
O=C(CN1CCCc2ccccc21)NCCc1ccc(F)cc1 | -11.2 | -4.3 | 1.5 | 0.5% | 0.7 | 3.3
CCS(=O)(=O)N1CC(=O)N(c2ccc(Cl)cc2)C(C)(C(=O)NC2CCCCC2)C1 (configuration not stated) | . | . | 0.5 | -0.6% | . | -2.9
O=C(O)C[C@@H](CNC(=O)COc1ccc2ccc(=O)oc2c1)c1ccc(Cl)cc1 | -4.4 | -2.8 | -0.4 | -1.8% | -3.5 | 7.5
Cc1ccccc1NC(=O)N1CCNC(=O)C1CC(=O)Nc1cc(Cl)ccc1Cl (configuration not stated) | 2.3 | -39.4 | -0.4 | 0.8% | -1.1 | 54.5
CCn1c(SCC(=O)NNC(=O)c2ccccc2)nnc1-c1ccco1 | 2.6 | -5.4 | 1.0 | -0.4% | -4.2 | 23.7
C=CCOc1ccc(C(=O)Nc2ccc(OCC)cc2)cc1 | 0.1 | -4.7 | -0.8 | -0.1% | 2.7 | -4.6
O=C(Nc1cccc([N+](=O)[O-])c1)c1ccc(CN2CCOCC2)cc1 | 5.0 | -11.8 | 0.1 | 0.6% | 2.9 | -24.6
CCOC(=O)C1CCN(S(=O)(=O)c2ccc3[nH]c(=O)ccc3c2)CC1 | 4.5 | -0.3 | 0.6 | 4.2% | -4.2 | -5.9
Cn1nnnc1NCc1ccccc1F | 0.2 | -11.7 | -0.8 | -0.8% | -3.8 | -7.7
O=C(CCNC(=O)c1ccc(Cl)cc1)NCc1ccco1 | -0.3 | -18.7 | 0.4 | 0.1% | -6.0 | 9.5
CCn1c(SCC(=O)NC2CCCCC2C)nnc1-c1ccc(OC)cc1 (configuration not stated) | 22.0 | -5.4 | -0.2 | -1.7%[38.3 µM] | -0.8 | 8.5
O=C(Nc1ccc(Oc2cccnc2)cc1)c1ccccc1F | 3.6 | -2.3 | -0.4 | -3.9% | 2.1 | -4.2
CCCNC(=O)C1CN(S(=O)(=O)c2ccc(C)cc2)c2ccccc2O1 (configuration not stated) | -1.9 | -9.6 | 0.0 | 5.8% | -3.4 | -9.8
COc1ccc2c(c1OC)C(=O)OC2c1c(O)nc(SC)n(-c2ccccc2)c1=O (configuration not stated) | 2.4 | -12.3 | -0.5 | 2.6% | -0.2 | -13.8
N#Cc1ccc(S(=O)(=O)Nc2ccc3ccccc3n2)cc1 | 8.0 | -0.7 | 2.1 | -1.2% | -0.8 | 2.6
COc1ccc(CCC(=O)N2CCCC(Nc3ccc(C)c(C)c3)C2)cc1OC (configuration not stated) | -8.8 | -7.6 | 0.9 | -0.8% | 3.6 | -1.9
CCC(C(=O)Nc1ccccc1C(=O)N1CCCC1)N1C(=O)c2ccccc2C1=O (configuration not stated) | 4.8 | -19.7 | 0.2 | 1.3%[38.3 µM] | -2.6 | -20.0
CCOc1ccc(S(=O)(=O)NCCCl)cc1 | 3.8 | 1.1 | 2.1 | 0.6% | -2.1 | 12.6

Molecules from the list above that have a cyano group:
SMILES | Six1-Eya2 inh | D2 potentiator | TRPML1 ag | PINK1 modulator | D2 agonist | TRPML1 blocker
N#Cc1ccc(CN2CCN(C(=O)Cn3nc(C(N)=O)c4ccccc4c3=O)CC2)cc1 | 18.4 | 0.1 | 0.1 | 0.5% | 1.8 | 44.1
CCOC(=O)C1=C(CC)OC(N)=C(C#N)C1c1ccc(NC(C)=O)cc1 (configuration not stated) | 8.6 | -7.5 | 0.1 | -0.1% | 1.6 | 23.7
N#Cc1ccc(S(=O)(=O)Nc2ccc3ccccc3n2)cc1 | 8.0 | -0.7 | 2.1 | -1.2% | -0.8 | 2.6

(listing goes on)
SMILES | Six1-Eya2 inh | D2 potentiator | TRPML1 ag | PINK1 modulator | D2 agonist | TRPML1 blocker
O=C(NCc1cc([N+](=O)[O-])ccc1O)c1cccnc1Sc1ccccc1 | -14.0 | 9.2 | -0.4 | 0.0% | 0.0 | -7.4
Cc1nc(CCNC(=O)CC2C(=O)NCCN2CC(C)(C)C)nc2c1CCC2 (configuration not stated) | 4.1 | -2.3 | 0.4 | 2.2% | -2.1 | -15.0
CC(C)c1ccc(NC(=O)C(c2ccccc2)N2CCN(C=O)CC2)cc1 (configuration not stated) | -1.4 | 3.7 | 0.0 | -0.8% | -2.4 | -1.2
Cc1ccc(S(=O)(=O)N2CC3(O)CN(C(=O)OC(C)C)N(C(=O)OC(C)C)CC3(OC(=O)Nc3cccs3)C2)cc1 (configuration not stated) | -1.7 | 6.6 | 0.1 | 2.1% | -2.0 | 2.1
